Rce1 inh = blocks yeast Ras-converting enzyme. AID 2563. actives 0.27% (n = 290,000). yeast membranes, quenched prenylated peptide cleavage fluorescence. calls only. Q03530;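 active means fall in fluorescence gain of 50% or more versus controls, with final raw signal at or below 3038400; inconclusive means same 50% fall but final raw signal above 3038400; inactive means fall in fluorescence gain under 50%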;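 further: plate controls were neutral control wells for no effect and wells lacking membranes for full effect; tested at 10 µM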
PABP FP inh = blocks human PABP binding to poly(A) RNA. P11940. fluorescence polarization. inhibition, % at 35 µM. actives 1% (n = 290,000). AID 2014;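 active means 50% or more with normal probe brightness, or confirmed in later tests; inconclusive means above 50% with abnormal brightness, or retests that disagree; inactive means below 50% or failed in later tests; about a fifth of its hits are not listed in these tables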;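 further: calls also rest on retests at 20 µM and on dose response follow-up; controls were probe without protein and protein plus probe with vehicle; some compounds called inactive have numbers as strong as hits; many hits fall short of the cut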
Target sequence (P11940 whole entry, looked up): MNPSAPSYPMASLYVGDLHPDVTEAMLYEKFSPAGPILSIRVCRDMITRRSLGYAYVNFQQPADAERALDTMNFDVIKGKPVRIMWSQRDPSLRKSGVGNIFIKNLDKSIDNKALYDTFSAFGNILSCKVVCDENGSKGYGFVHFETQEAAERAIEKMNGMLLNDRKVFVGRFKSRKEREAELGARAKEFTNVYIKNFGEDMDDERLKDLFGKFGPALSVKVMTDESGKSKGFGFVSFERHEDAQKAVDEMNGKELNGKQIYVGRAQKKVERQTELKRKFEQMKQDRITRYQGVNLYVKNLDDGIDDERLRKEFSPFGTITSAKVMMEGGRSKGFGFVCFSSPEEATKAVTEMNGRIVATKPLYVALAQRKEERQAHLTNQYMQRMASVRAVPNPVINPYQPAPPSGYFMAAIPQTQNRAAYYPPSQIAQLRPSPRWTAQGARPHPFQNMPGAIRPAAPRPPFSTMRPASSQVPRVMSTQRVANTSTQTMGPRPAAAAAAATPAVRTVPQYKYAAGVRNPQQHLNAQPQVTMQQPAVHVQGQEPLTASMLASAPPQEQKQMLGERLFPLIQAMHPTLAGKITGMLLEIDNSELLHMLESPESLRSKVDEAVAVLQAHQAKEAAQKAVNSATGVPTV
CSC inhib = blocks cancer stem cells | cancer stem cell-like cells viability, luminescence | inhibition, % at 7.5 µM | actives 1.1% (n = 300,000);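 active means mean at 75% or more and at least half the replicates too; inconclusive means mean and replicates disagree; tested in HMLE shEcad cells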;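 further: 0% = median of negative and 100% = median of positive control wells; the first replicate is given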
Env fusion inh = HIV envelope-mediated fusion inhibition | HeLa-JRFL Env/CEM21 cell fusion, luciferase | inhibition, % at 12.3 µM | actives 1.1% (n = 360,000) | AID 651610;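 active means mean replicate inhibition score of at least 50 and every replicate individually at or above 50; inconclusive means only one of the two criteria met; inactive means mean below 50 and not all replicates reaching 50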;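 further: 0% = plate neutral controls and 100% = maraviroc near 300 nM; one replicate is shown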
UUG fidelity = alters start codon recognition fidelity in yeast. S. cerevisiae UUG-firefly luciferase reporter, luminescence/redox ratio. actives 0.13% (n = 350,000). activity score, % at 18.7 µM;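 active means replicate mean at a twofold rise or more, about +100% in these data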;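 further: firefly luciferase made from a UUG start codon reports start codon fidelity; reporter light over untreated wells divided by growth signal over untreated wells; some hits fall short of that in this replicate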
eIF4H FP inh = inhibitors of RNA binding by human eIF4H | eIF4H fluorescence polarization binding assay | inhibition, % at 35 µM | Q15056 | actives 0.94% (n = 290,000);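 active means 50% or more with normal probe brightness, or confirmed in later tests; inconclusive means above 50% with abnormal brightness, or retests that disagree; inactive means below 50% or failed in later tests; about a fifth of its hits are not listed in these tables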;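 further: calls also rest on retests at 20 µM and on dose response follow-up; 0% = protein and probe with vehicle and 100% = probe without protein; strong numbers were not always called active; many hits fall short of the cut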
MT1-MMP act inh = inhibitors of human MT1-MMP activation. P50281. HT1080 RFP-PRO-GFP cells, GFP/RFP ratio fluorescence, overnight; percent of plate control window, DMSO zero. GFP/RFP ratio change, % at 20 µM. actives 0.061% (n = 360,000);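 active means GFP/RFP ratio change of at least 30% with cell ATP level not reduced by more than half and red fluorescence within 50% of control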; further: strong numbers were not always called active
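Compound: 20 µM single dose, 1% DMSO / System: HT1080 RFP-PRO-GFP cells / Controls: DMSO and RFP-L50D-GFP cell wells / Read-out basis: GFP/RFP fluorescence ratio / Schedule: overnight compound exposure at 37 °C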
eIF4H FP inh retest = recorded beside eIF4H FP inh, whose call it bears; inhibition, %; compound at 20 µM; confirmation average;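 mean of two retest wells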
PABP FP inh retest = recorded beside PABP FP inh, whose call it bears; inhibition, %; compound at 20 µM; confirmation repeats;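 mean of two retest wells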
MT1-MMP act inh RFP = further read-out of MT1-MMP act inh, marked with its call; RFP signal change, %; measured here: RFP expression control read;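 0 = vehicle wells; hits needed this value within 50% of zero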
* hit, by the source's call; i = inactive; u = inconclusive; x = no result given.

SMILES	Rce1 inh	PABP FP inh	CSC inhib	Env fusion inh	UUG fidelity	eIF4H FP inh	MT1-MMP act inh	MT1-MMP act inh RFP	others
CCc1ccc(NC(=O)N(CCN2CCOCC2)Cc2ccc3c(c2)CCCN3CC)cc1	i	2	-6	31	-11	9	3	2
CCOc1ccc2[nH]c(SCC(=O)OC)c([N+](=O)[O-])c2c1	i	30*	-2	19	x	54*	2	5	eIF4H FP inh retest=98*;PABP FP inh retest=74*
OCC1(c2cc(C(F)(F)F)n[nH]2)CCCCC1	i	7	-6	-35	5	1	2	6
O=C(CN1C2=NCCCN2c2ccccc21)c1cccc(Br)c1	i	14	-4	x	x	-9	5	10
CCCN1CCN(C(c2cc3cc4c(cc3[nH]c2=O)OCO4)c2nnnn2C(C)(C)C)CC1 (stereo unspecified)	i	4	1	x	-4	-4	2	6
Nn1c(SCC(=O)Nc2ccccc2)nnc1-c1cccnc1	i	9	-5	x	-6	5	-1	3
O=c1cc(N2CCc3ccccc3C2)[nH]c(=O)n1-c1ccc(Br)cc1	i	-1	7	x	-11	-6	4	-1
CCCOc1ccc(CC(=O)N/N=C\c2ccc(F)cc2)cc1	i	2	7	13	-16	-7	3	-2
COc1cc2c(cc1OC)-c1cc(Nc3ccccc3C)nc(=O)n1CC2	i	10	4	12	4	2	-1	-1
O=C(CCCN1C(=O)C2CC=CCC2C1=O)Nc1ccccc1Cl (stereo unspecified)	i	8	0	-7	2	-16	-1	4
O=C(NCc1ccccc1)c1cc(=O)nc2sc(-c3ccccc3)nn12	x	-6	x	-48	-8	3	12	-1
CC(OC(=O)Cn1cnc2c1c(=O)n(C)c(=O)n2C)C(=O)NC1(C#N)CCCCC1 (stereo unspecified)	x	x	x	-44	-2	x	3	3
CCc1cc(-c2nc(N)ncc2-c2csc(C)n2)c(O)cc1OC	i	-5	-9	-14	x	-8	-3	0
Cc1ccc(NC(=O)c2ccccc2NS(=O)(=O)c2ccc(Cl)s2)cc1	i	-4	51	u	-11	4	-25	-38
C=CCn1c(SCCC)nc2sc3c(c2c1=O)CCc1ccccc1-3	i	-6	83*	x	-8	-7	-4	-3
O=c1c2ccccc2nc(/C=C/c2ccc(Br)cc2)n1CCCO	i	-1	25	-4	-6	-10	-3	-5
COC[C@@H]1CCCN1[C@@H]1CS(=O)(=O)N[C@H]1COCc1ccccc1	x	x	x	-18	-7	x	1	2
Cn1nnnc1SCC(=O)NNC(=O)c1ccc(Br)cc1	i	-11	-6	-15	x	-2	-2	4
COc1ncnc2c1ncn2CCCNC1CCN(Cc2ccccc2)CC1	x	x	x	-12	-20	x	2	6
Nc1ccccc1C(=O)NNC(=O)C(=O)/C=C(\O)c1ccccc1	i	9	6	-18	-10	11	-3	3
O=C(CCNS(=O)(=O)c1ccccc1F)NC1CCCCCC1	x	x	x	-11	-16	x	-1	4
COc1cc(CN(C)Cc2cc(=O)oc3cc(C)c(Cl)cc23)ccc1OC(F)F	i	-1	3	39	-4	-12	-2	-9
COc1ccc(S(=O)(=O)N2CCC3(CC2)CC(=O)c2ccccc2O3)cc1	i	x	-6	-6	8	x	-6	-4
Cc1ccc(C)c(OCC(=O)Nc2cccc(S(=O)(=O)NC3=NCCCCC3)c2)c1	i	-6	-7	7	-2	-4	0	-4
COCCNC(=O)c1ccccc1-c1nc(-c2ccccc2Cl)no1	i	-7	0	x	-15	-2	-4	1
CC(=O)c1ccc(NC(=O)c2ccc3c(Cl)c4c(nc3c2)CCCC4)cc1	i	-6	68	-16	x	-2	6	-8
CN(C(=O)C1CCOC1)c1nnc(-c2cccnc2)s1 (stereo unspecified)	i	9	-14	-32	-7	-5	7	-1
CCOc1ccc(/C=C2\SC(=S)N(NS(=O)(=O)c3ccc(C)cc3)C2=O)cc1OC	i	12	29	-4	-13	-13	1	1
CCOC(=O)C1CCCCN1C(=O)/C(=C/c1ccc(OC)cc1)c1ccc(OC)c(OC)c1 (stereo unspecified)	x	x	-6	7	17	x	4	-1
Cc1ccnc(NC(=O)Nc2ccc3c(c2)OCO3)c1	i	3	0	-95	x	-3	0	1
CC(C)(C)NC(=O)COC(=O)c1ccc(NC(=O)CC#N)cc1	i	-2	-12	1	x	4	0	3
Cc1cc(N=NC(=O)c2ccccc2O)c2ccccc2c1O	i	-12	65	-102	x	23	7	-17
Cc1ccccc1CSc1nnc(C)c(=O)[nH]1	i	-8	-5	-7	-6	-12	-2	4
COC(=O)C1C(=O)C2=C(CC1C)Nc1ccccc1NC2c1cccs1 (stereo unspecified)	i	-12	-7	-4	x	-2	-3	2
COC(=O)Cc1ccc(NC(=S)NCCO)cc1	i	1	-13	1	x	2	2	3
COCCNc1nc(-c2ccccc2)nc2ccccc12	i	8	-5	4	x	-18	4	-2
CNc1ncc(C(=O)C(C)(C)C)s1	i	-4	-8	x	-6	-7	2	7
CCOC(=O)C1C(c2ccccc2)C(C(=O)OCC)C1c1ccccc1 (stereo unspecified)	i	-6	-7	x	2	-8	4	-5
CCn1ccc(C(=O)Nc2ccc(S(=O)(=O)Nc3ccccc3OC)cc2)n1	i	5	2	x	x	-8	x	x
O=C(Nc1ccc2c(c1)CCC2)c1cccc(OC(F)F)c1	x	x	6	-151	2	x	2	-7
CN1CCN(S(=O)(=O)NC[C@H]2O[C@@H](n3cnc4c(N)ncnc43)[C@H](O)[C@@H]2O)CC1	x	x	x	-9	6	x	4	5
CC(C)(C)c1cc(C(=O)Nc2ccccc2)ccn1	i	-8	3	8	x	3	-5	-6
CCOc1ncccc1C(=O)Nc1cc(S(=O)(=O)N2CCOCC2)ccc1OCC(F)(F)F	x	x	-6	x	-20	x	-1	-2
COc1cccc(CNc2nc3cc(-c4ccccc4C)sc3c(=O)n2C)c1OC	x	x	x	32	-18	x	-1	-12
CC(C)Oc1ccc(CN2CCC(n3nccc3NC(=O)c3cccnc3)CC2)cc1	i	-4	-8	-1	-12	-6	6	6
CC1CCCN(C(=O)c2ccc3c(=O)n(Cc4ccc5c(c4)OCO5)c(=S)[nH]c3c2)C1 (stereo unspecified)	i	5	26	-45	20	2	4	-15
CN(c1ccccc1)c1nc2ccsc2c(=O)s1	i	13	48	-119	-12	-4	-2	-4
CN(Cc1ccccc1)C1=CC(=[N+]2CCCC2)CC(C)(C)C1	i	40	17	60*	-16	2	-17	-36
COc1ccc(-n2c(SCC(=O)Nc3ncc(Cl)cc3Cl)nc3ccccc32)cc1	i	7	44	x	x	2	x	x
O=C(NCc1ccc(F)cc1)C(c1ccccc1)N(C(=O)c1csnn1)C1CCCC1 (stereo unspecified)	i	16	-7	27	-4	2	-3	3
Cc1cc(C)cc(NC(=O)CSc2ccc(-c3ccco3)nn2)c1	i	-4	18	1	-6	40	3	-5
CN(Cc1ccccc1)C(=O)c1[nH]cnc1C(=O)Nc1cccc(Cl)c1	x	x	30	-42	22	x	1	-1
Cc1cccn2c(=O)c3cc(C(=O)NC4CCCCC4)n(C)c3nc12	i	29	47	-19	-13	16	-7	-12
COc1cc([N+](=O)[O-])ccc1NC(=O)NCc1ccccn1	i	2	0	2	-23	-4	1	0
COc1cc(C(=O)O)ccc1Cl	i	10	10	-9	-12	-5	5	4
O=c1oc2ccccc2c(O)c1/C=N/c1ncccn1	i	14	-10	-11	-9	-14	3	1
Cc1ccc(-n2c(C)c(C)c3c(NCCCO)ncnc32)cc1	i	-1	-6	-19	-3	-2	0	-2
CSc1ccc(CN2CCC(n3nccc3NC(=O)c3ccccc3C)CC2)cc1	i	-12	16	4	1	-4	1	1
CC(C)(C)c1ccc(C(=O)CS(=O)(=O)c2ccccc2)cc1	i	-6	22	x	-51	-14	1	-1
CCCCN(C(=O)CNC(=O)c1ccco1)C(C(=O)NC1CCCC1)c1ccc(OC)cc1 (stereo unspecified)	i	-9	-13	-86	2	-1	2	-2

Following part
SMILES	Rce1 inh	PABP FP inh	CSC inhib	Env fusion inh	UUG fidelity	eIF4H FP inh	MT1-MMP act inh	MT1-MMP act inh RFP	others
NC(=O)C1=CN(Cc2ccc(Cl)cc2)CCC1C(F)(F)F (stereo unspecified)	i	-4	-15	-15	-13	-6	-2	-1
CC(Sc1nncn1C)C(=O)Nc1nnc(C(C)C)s1 (stereo unspecified)	i	6	-1	0	-16	-5	9	4
C[C@H]1CCC(=O)N([C@H](CSc2ccc(Br)cc2)Cc2ccccc2)CC1	x	x	46	22	-18	x	-12	-14
CC1(C(=O)NS(=O)(=O)c2ccccc2C(F)(F)F)CCN1C(=O)CCc1ccccc1 (stereo unspecified)	x	x	x	10	-5	x	1	5
CCOP(=O)(OCC)/C(C#N)=C(\O)c1ccc(OC)cc1	i	-2	-16	-31	-22	-8	1	5
O=C1N(Cc2cccc(Cl)c2)C[C@@H]2C[C@@H](c3c[nH]c4ccccc34)N3CCC[C@@]123	i	51	0	2	-18	81	25	67	eIF4H FP inh retest=-3;PABP FP inh retest=20
COc1ccccc1-c1cnc(C(O)c2ccc(Cl)c(F)c2)[nH]1 (stereo unspecified)	x	x	x	0	-20	x	9	-4
COc1c(C)cccc1C(=O)NCCCNC(=O)c1ccc(C)nc1	i	13	x	-4	-7	6	3	4
CCCCn1c(SCC(=O)N2CCOCC2)nc2c1c(=O)n(C)c(=O)n2C	i	1	-13	-5	-5	-12	-1	0
CCN(CC)C1CCN(C(=O)CCc2nnc(CCc3ccccc3)o2)C1 (stereo unspecified)	i	5	-3	6	-11	8	-3	0
CCC(C)Nc1nc(N)c([N+](=O)[O-])c(Nc2ccccc2OC)n1 (stereo unspecified)	i	8	27	-5	-14	7	-1	-2
O=C(N/N=C/c1ccc2nccnc2c1)c1cccc([N+](=O)[O-])c1	i	-3	-5	-16	x	-11	-2	0
COc1ccc(C)cc1S(=O)(=O)N1CC(C)OC(C)C1 (stereo unspecified)	i	4	2	18	-14	8	1	-2
C[C@H](O)[C@@H]1CN2CCc3c([nH]c4ccccc34)[C@@H]2C[C@@H]1N(C)C(=O)Nc1cc(Cl)cc(Cl)c1	x	x	x	14	-16	x	-15	5
Cc1cccc2sc(N(CCN(C)C)C(=O)c3cc(Cl)sc3Cl)nc12	i	-13	x	2	-9	-2	1	4
O=C(NCc1cccs1)C(=O)NCC1OCCCN1S(=O)(=O)c1ccc(F)cc1 (stereo unspecified)	i	16	-11	12	x	-9	1	6
O=C(Nc1ccccc1Cl)c1cc(C2CCCN(C(=O)c3ccc4c(c3)CCO4)C2)on1 (stereo unspecified)	x	x	x	-4	-12	x	2	0
COc1cc(C(=O)OC(C)C(=O)Nc2ccc3c(c2)OCO3)ccc1OCc1c(C)noc1C (stereo unspecified)	i	8	15	5	-2	-13	4	0
N#CC(c1nc2ccccc2nc1OCCO)S(=O)(=O)c1ccccc1 (stereo unspecified)	i	-6	5	11	-7	1	-3	-1
Cc1ccc(/C=N/n2c(C)nnc2C)o1	i	0	-8	-7	-16	7	-1	5

Among those listed so far, 4 have a cyano group.
SMILES	Rce1 inh	PABP FP inh	CSC inhib	Env fusion inh	UUG fidelity	eIF4H FP inh	MT1-MMP act inh	MT1-MMP act inh RFP	others
CC(OC(=O)Cn1cnc2c1c(=O)n(C)c(=O)n2C)C(=O)NC1(C#N)CCCCC1 (stereo unspecified)	x	x	x	-44	-2	x	3	3
CC(C)(C)NC(=O)COC(=O)c1ccc(NC(=O)CC#N)cc1	i	-2	-12	1	x	4	0	3
CCOP(=O)(OCC)/C(C#N)=C(\O)c1ccc(OC)cc1	i	-2	-16	-31	-22	-8	1	5
N#CC(c1nc2ccccc2nc1OCCO)S(=O)(=O)c1ccccc1 (stereo unspecified)	i	-6	5	11	-7	1	-3	-1

Source: PubChem BioAssay (several laboratories)
